NOMO-1 viab: NOMO-1 AML cell viability reduction, primary screen, STK33 inhibitor project, CellTiter-Glo luminescence; AID 2330, 2010; NOMO-1 AML viability, 72 h; 7.5% of 37,000 active; inhibition, % (no concentration beside the values);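 active means most replicates above 80%; inconclusive means exactly half above 80%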;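 further: wells of about 30 µL received 25 nL stock; 0% = median of vehicle wells and 100% = reference inhibitor level; the first replicate is given; inactives centre near 10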
An asterisk follows results filed as active; ? = inconclusive. A portion of the library, so the mix of outcomes need not match the whole.

Molecule	NOMO-1 viab
C[C@@H]1CCCCO[C@@H](CN(C)C(=O)CCCN(C)C)[C@@H](C)CN([C@H](C)CO)C(=O)c2cc(NC(=O)CCCN(C)C)ccc2O1	26
COc1ccc(S(=O)(=O)Nc2ccc3c(c2)C(=O)N([C@@H](C)CO)C[C@H](C)[C@@H](CN(C)S(=O)(=O)c2cccs2)O3)cc1	4
Cc1cc2nc(-c3cccc(NC(=O)COc4ccccc4C)c3C)oc2cc1C	40
CCNc1nc(SCCOc2ccccc2)nc(N(C)C)n1	26
C[C@H]1CN([C@@H](C)CO)C(=O)c2cc(NC(=O)Nc3ccc4c(c3)OCO4)ccc2O[C@H]1CN(C)C(=O)Nc1ccc(F)cc1	6
C[C@@H]1CN([C@H](C)CO)C(=O)c2cc(NC(=O)CCN3CCOCC3)ccc2O[C@@H]1CN(C)CC1CCCCC1	-10
Cc1ccc(-n2c(=O)c3c4c(sc3n3c(SCC(=O)c5ccc(F)cc5)nnc23)CCCC4)cc1	96*
CS(=O)(=O)N(CC(=O)Nc1ccccc1C(F)(F)F)c1cccc(F)c1	-11
Cc1ccc(NC(=O)CSc2c(C)n[nH]c2C)cc1Cl	-11
C=CC(C)(C)c1[nH]cnc1/C=C1\NC(=O)C(C(C)C)NC1=O (stereo unspecified)	106*
Cc1c(Br)c(C(F)(F)F)nn1CC(=O)Nc1cc(O)cc([N+](=O)[O-])c1	53
C[C@H]1CN([C@@H](C)CO)C(=O)c2cc(NS(C)(=O)=O)ccc2O[C@H]1CN(C)Cc1ccncc1	-5
COc1ccc(NC(=O)N(C)C[C@H]2Oc3ccc(NC(=O)NC(C)C)cc3CC(=O)N([C@@H](C)CO)C[C@H]2C)cc1	-34
O=C(CSc1n[nH]c(-c2ccco2)n1)Nc1ccc(I)cc1	-8
C[C@@H]1CCCCO[C@@H](CN(C)C(=O)CCCN(C)C)[C@@H](C)CN([C@H](C)CO)C(=O)c2cc(NS(=O)(=O)c3ccc(F)cc3)ccc2O1	-3
COc1ccc(-c2nnc(SCC(=O)c3ccc(F)cc3)n2-c2ccccc2)cc1OC	35
C[C@@H]1CN([C@@H](C)CO)C(=O)c2cc(NC(=O)Cn3cnnn3)ccc2O[C@@H]1CN(C)S(=O)(=O)c1ccc(F)cc1	2
CNC[C@@H]1Oc2c(NC(=O)Nc3c(C)noc3C)cccc2C(=O)N([C@@H](C)CO)C[C@@H]1C	-8
O=C(NCc1cccnc1)c1ccccc1[N+](=O)[O-]	19
COc1ccc(S(=O)(=O)Nc2cccc3c2O[C@H](CN(C)Cc2ccc4c(c2)OCO4)[C@@H](C)CN([C@@H](C)CO)C3=O)cc1	9

Later entries.
Molecule	NOMO-1 viab
C[C@H](CO)N1C[C@H](C)[C@@H](CN(C)Cc2ccncc2)Oc2c(NC(=O)C3CCOCC3)cccc2C1=O	8
C[C@@H]1CN([C@H](C)CO)C(=O)c2cc(NC(=O)c3ccncc3)ccc2O[C@@H]1CN(C)S(C)(=O)=O	3
C[C@@H]1O[C@@H](Oc2cc(O)c3c(=O)c(O[C@@H]4O[C@@H](C)[C@H](O)[C@@H](O[C@@H]5OC[C@@H](O)[C@H](O)[C@H]5O)[C@H]4O[C@@H]4O[C@H](CO)[C@@H](O)[C@H](O)[C@H]4O)c(-c4ccc(O)cc4)oc3c2)[C@H](O)[C@H](O)[C@H]1O	-7
CCOc1ccc(-n2nc3cc(C)c(NC(=O)c4cc(-n5cnnc5)ccc4Cl)cc3n2)cc1	-11
O=C(CSc1n[nH]c(-c2ccncc2)n1)Nc1ccc(Cl)cc1Cl	-2
COC(=O)c1ccccc1NC(=O)Cn1c(C(F)(F)F)nc2ccccc21	14
CCCCCCCC1OC(=O)CCC(O)/C=C\C(O)C1O (stereo unspecified)	43
COc1ccc(NC(=O)N(C)C[C@H]2Oc3ccc(NS(=O)(=O)c4c(C)noc4C)cc3CC(=O)N([C@@H](C)CO)C[C@H]2C)cc1	1
C[C@H](CO)N1C[C@H](C)[C@H](CN(C)CC2CC2)Oc2ccc(NS(=O)(=O)c3ccccc3)cc2C1=O	-1
COc1ccc(S(=O)(=O)N(C)C[C@@H]2Oc3ccc(NC(=O)NC4CCCCC4)cc3CC(=O)N([C@@H](C)CO)C[C@@H]2C)cc1	26
COC(=O)c1c(NC(=O)C2CC=CCC2C(=O)O)sc2c1CCC(c1ccccc1)C2 (stereo unspecified)	11
C[C@H](C[C@@H](O)[C@](C)(O)[C@H]1CC[C@@]2(O)C3=CC(=O)[C@@H]4C[C@@H](O)[C@@H](O)C[C@]4(C)C3CC[C@]12C)C(C)(C)O (stereo partly specified)	17
C[C@@H]1CN([C@H](C)CO)C(=O)Cc2cc(NC(=O)Nc3ccc(F)cc3)ccc2O[C@@H]1CN(C)S(=O)(=O)c1ccccc1	7
O=c1c(N2CCOCC2)nnc2sc3ccccc3n12	8
O=C(NC(c1ccccc1)c1ccccc1)c1ccccc1Cl	34
C[C@H]1CN([C@@H](C)CO)C(=O)c2cc(NC(=O)C3CCCCC3)ccc2O[C@@H]1CN(C)Cc1ccncc1	25
Cc1noc(C)c1S(=O)(=O)Nc1ccc2c(c1)CC(=O)N([C@H](C)CO)C[C@H](C)[C@H](CN(C)C(=O)Nc1ccccc1)O2	7
Cc1ccc(S(=O)(=O)Nc2cccc3c2O[C@H](CN(C)C(=O)NC2CCCCC2)[C@H](C)CN([C@H](C)CO)C3=O)cc1	23
C[C@H]1CN([C@@H](C)CO)C(=O)c2cccc(NC(=O)c3cnccn3)c2O[C@H]1CN(C)S(=O)(=O)c1ccccc1	-2
COc1ccc(NC(=O)Cc2ccccc2[N+](=O)[O-])cc1OC	7

2 consecutive entries from above, quoted:
Molecule	NOMO-1 viab
C[C@H](CO)N1C[C@H](C)[C@@H](CN(C)Cc2ccncc2)Oc2c(NC(=O)C3CCOCC3)cccc2C1=O	8
C[C@@H]1CN([C@H](C)CO)C(=O)c2cc(NC(=O)c3ccncc3)ccc2O[C@@H]1CN(C)S(C)(=O)=O	3

(list continues)
Molecule	NOMO-1 viab
COc1ccc(NC(=O)N(C)C[C@H]2Oc3ccc(NC(=O)c4ccncc4)cc3CC(=O)N([C@@H](C)CO)C[C@@H]2C)cc1	-14
C[C@@H]1CN([C@@H](C)CO)C(=O)c2cccc(NC(=O)Nc3ccc(C(F)(F)F)cc3)c2O[C@H]1CN(C)S(=O)(=O)c1ccc(Cl)cc1	?
CC(CO)(CO)NS(=O)(=O)c1ccccc1	20
C[C@@H]1CN([C@H](C)CO)C(=O)c2cc(NC(=O)CCN3CCOCC3)ccc2O[C@H]1CN(C)S(=O)(=O)c1ccc(Cl)cc1	-9
CC(C)NC(=O)N(C)C[C@@H]1Oc2ccc(NS(C)(=O)=O)cc2C(=O)N([C@@H](C)CO)C[C@H]1C	25
CCCCC[C@H](O)/C=C/[C@H]1C=CC(=O)[C@@H]1CCCCCCC(=O)O	37
C/C=C(/C)C(=O)O[C@@H]1Cc2c(ccc3ccc(=O)oc23)OC1(C)C	1
COC(=O)c1cccc(NC(=O)CSc2nc3ccccc3s2)c1	1
C=CC/C=C\C/C=C\CCCCCCCc1cccc(O)c1C(=O)O	22
COc1ccc(S(=O)(=O)N(C)C[C@@H]2Oc3c(NS(=O)(=O)c4ccc(C)cc4)cccc3C(=O)N([C@H](C)CO)C[C@H]2C)cc1	-6
Cc1ccc(NC(=O)CSC2CC(=O)N(c3ccc(Cl)cc3)C2=O)cc1 (stereo unspecified)	-36
Cc1cccc(C(=O)Nc2ccc3[nH]c(=O)[nH]c3c2)c1	-26
C[C@@H]1CN([C@@H](C)CO)C(=O)Cc2cc(NS(C)(=O)=O)ccc2O[C@@H]1CN(C)S(=O)(=O)c1ccc(F)cc1	27
C[C@H]1CN([C@@H](C)CO)C(=O)c2cc(NC(=O)c3ccncc3)ccc2O[C@H]1CN(C)Cc1ccc(C(=O)Nc2ccccc2N)cc1	107*
COc1ccc(NC(=O)N(C)C[C@@H]2Oc3c(NC(=O)c4ccncc4)cccc3C(=O)N([C@@H](C)CO)C[C@@H]2C)cc1	-5
CC(=O)c1ccc(NC(=O)CSc2ncnc3c2sc2nc4c(cc23)COC(C)(C)C4)cc1	24
O=C(COc1ccc([N+](=O)[O-])cc1)Nc1cccc(-c2nc3c(ccc4ccccc43)o2)c1	51
O=C(Nc1ccccc1)c1ccc(S(=O)(=O)NCc2ccco2)cc1	22
COc1ccc(CNc2nc(-c3ccc(Cl)cc3)nn2C(=O)c2ccco2)cc1	7
C[C@@H]1CN([C@@H](C)CO)C(=O)c2cc(N(C)C)ccc2O[C@H]1CN(C)C(=O)Nc1ccc(C(F)(F)F)cc1	31

The list goes on:
Molecule	NOMO-1 viab
CNC[C@H]1Oc2c(NC(=O)c3ccncc3)cccc2C(=O)N([C@@H](C)CO)C[C@@H]1C	-7
C[C@@H]1CN([C@H](C)CO)C(=O)c2cc(N(C)C)ccc2O[C@@H]1CN(C)Cc1ccc2c(c1)OCO2	18
COc1ccc(CN(C)C[C@@H]2Oc3c(NC(=O)Nc4ccc(C(F)(F)F)cc4)cccc3C(=O)N([C@H](C)CO)C[C@@H]2C)cc1	90*
O=C(CCCN1C(=O)c2ccccc2C1=O)Nc1cccc(Cl)c1	-9
C[C@@H]1CN([C@@H](C)CO)C(=O)Cc2cc(NS(=O)(=O)c3ccc(Cl)cc3)ccc2O[C@@H]1CN(C)C(=O)Nc1ccccc1	18
Cc1noc(C)c1NC(=O)N(C)C[C@H]1OCCCC[C@@H](C)Oc2ccc(NC(=O)Nc3ccc(C(F)(F)F)cc3)cc2C(=O)N([C@H](C)CO)C[C@@H]1C	49
COc1ccc(NC(=O)c2ccco2)cc1NC(=O)CSc1ccc(Cl)cc1	15
C[C@@H]1CN([C@H](C)CO)C(=O)Cc2cc(NC(=O)Nc3ccc(F)cc3)ccc2O[C@@H]1CN(C)C(=O)Nc1ccccc1	-10
C[C@H](CO)N1C[C@H](C)[C@H](CN(C)S(=O)(=O)c2cn(C)cn2)Oc2c(NS(=O)(=O)c3ccccc3)cccc2C1=O	22
C[C@H]1CN([C@@H](C)CO)C(=O)Cc2cc(NS(=O)(=O)c3ccccc3)ccc2O[C@@H]1CN(C)C(=O)Nc1ccc(F)cc1	38
Cc1ccc(S(=O)(=O)N(C)C[C@@H]2OCCCC[C@@H](C)Oc3ccc(NC(=O)Nc4ccc(F)cc4)cc3C(=O)N([C@H](C)CO)C[C@@H]2C)cc1	25
COc1ccc(CN(C)C[C@@H]2OCCCC[C@@H](C)Oc3ccc(NC(=O)Nc4ccccc4)cc3C(=O)N([C@H](C)CO)C[C@@H]2C)cc1	22
COc1ccc(S(=O)(=O)N(C)C[C@@H]2Oc3c(NS(=O)(=O)c4ccc(F)cc4)cccc3C(=O)N([C@H](C)CO)C[C@H]2C)cc1	5
COc1ccc(S(=O)(=O)N(C)C[C@@H]2Oc3ccc(NC(=O)c4ccncc4)cc3CC(=O)N([C@@H](C)CO)C[C@@H]2C)cc1	16
O=C(NCc1cccnc1)c1cnn2c(C(F)F)cc(-c3ccccc3)nc12	11
C[C@H]1CN([C@@H](C)CO)C(=O)c2cc(NS(=O)(=O)c3ccc(Cl)cc3)ccc2O[C@H]1CN(C)C(=O)Nc1ccc(F)cc1	3
COc1ccccc1NC(=O)Cn1nnc(-c2cccs2)n1	3
Cc1sc2nc(SCC(=O)Nc3c(F)cc(F)cc3Br)n(C)c(=O)c2c1C	49
CN(c1ccccc1C(=O)Nc1ccccc1C(=O)N1CCOCC1)S(C)(=O)=O	1
Cc1nnc(SCC(=O)Nc2ccc(Cl)cc2)n1-c1ccccc1	9

Arranged by number of heavy atoms (largest number first): three of the compounds above.
Molecule	NOMO-1 viab
Cc1noc(C)c1NC(=O)N(C)C[C@H]1OCCCC[C@@H](C)Oc2ccc(NC(=O)Nc3ccc(C(F)(F)F)cc3)cc2C(=O)N([C@H](C)CO)C[C@@H]1C	49
C[C@H]1CN([C@@H](C)CO)C(=O)c2cc(NS(=O)(=O)c3ccc(Cl)cc3)ccc2O[C@H]1CN(C)C(=O)Nc1ccc(F)cc1	3
Cc1nnc(SCC(=O)Nc2ccc(Cl)cc2)n1-c1ccccc1	9

Grouped by structure: those above with a nitro group on carbon
Molecule	NOMO-1 viab
Cc1c(Br)c(C(F)(F)F)nn1CC(=O)Nc1cc(O)cc([N+](=O)[O-])c1	53
O=C(NCc1cccnc1)c1ccccc1[N+](=O)[O-]	19
COc1ccc(NC(=O)Cc2ccccc2[N+](=O)[O-])cc1OC	7
O=C(COc1ccc([N+](=O)[O-])cc1)Nc1cccc(-c2nc3c(ccc4ccccc43)o2)c1	51

(listing goes on)
Molecule	NOMO-1 viab
c1ccc(-c2nc3ccc(Cc4ccc5nc(-c6ccccn6)c(-c6ccccn6)nc5c4)cc3nc2-c2ccccn2)nc1	-18
O=C(Cn1ccc([N+](=O)[O-])n1)NCc1ccco1	3
COC(=O)c1ccc(C2C(C(=O)c3ccco3)C(=O)C(=O)N2Cc2ccco2)cc1 (stereo unspecified)	-9
C1=Cc2nonc2C2C=C(c3ccccc3)N=C12 (stereo unspecified)	92*
C[C@@H]1CN([C@@H](C)CO)C(=O)Cc2cc(NS(=O)(=O)c3ccc(F)cc3)ccc2O[C@@H]1CN(C)S(=O)(=O)c1ccccc1	-2
Cc1noc(C)c1NC(=O)Nc1ccc2c(c1)C(=O)N([C@H](C)CO)C[C@H](C)[C@H](CN(C)Cc1ccc(C(=O)Nc3ccccc3N)cc1)O2	37
CC(=O)OCc1ccccc1Sc1ccccc1C(=O)NCc1ccccc1	18
C[C@@H]1CN([C@@H](C)CO)C(=O)c2cc(NC(=O)Nc3ccc4c(c3)OCO4)ccc2O[C@@H]1CN(C)S(=O)(=O)c1cn(C)cn1	-11
COc1ccc(OC)c(NC(=O)CSc2nc3ccccc3n2C2CCCCC2)c1	11
